# Source: PubChem BioAssay (ICCB-Longwood Screening Facility, Harvard Medical School)
# LANA-nucl inh: LANA-nucleosome interaction inhibition | FITC-LANA1-23 / chicken nucleosome fluorescence polarization; stronger effect = lower value | z-score (test concentration not listed) | hit rate 0.3% among 51,000 | AID 720717;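 active = both repeat wells score below -2 in polarization z-score versus plate sample wells, excluding overly bright wells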;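 also: 100 nL library stock added to about 30 µL; numbers are from one replicate; some results filed as inactive read as strong as hits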
#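 test system = FITC-LANA peptide and chicken nucleosomes | amount = 240 nM purified chicken nucleosomes (480 nM peptide binding sites), final | reagent = 50 nM FITC-LANA1-23 probe | medium = TEN-BT buffer, pH 7.5 | doses = single compound addition by pin transfer, 100 nL per well | timing = 10–45 min, room temperature | detection = fluorescence polarization | repeats = duplicate plates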
# Ab BasE inh: BasE siderophore biosynthesis inhibition; purified BasE, fluorescence polarization binding displacement; inhibition, % (test concentration not listed); hit rate 0.1% among 84,000; AID 485350;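 active = both replicates above 25% with normal brightness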;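 also: 0% = negative plate control signal and 100% = positive plate control signal; stock transfer was 100 nL into about 30 µL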
# * hit, by the source's call; / = not tested or not shown; & = joins results of further samples. Only part of the results is shown; rates above refer to the full screens.
SMILES,LANA-nucl inh,Ab BasE inh
CC(C)(C)C1=NN(c2nc3ccc(Cl)cc3s2)C(=O)C1,/,1.2
COc1ccc(-c2nnc(Nc3ccc(Cl)cc3)c3ccccc23)cc1,/,3.0
CC1Nc2c(c(=O)oc3ccccc23)NC1=O (stereo unspecified),0.24,0.0
O=C(Oc1cc(Cl)cc(Cl)c1)C12CC3CC(CC(C3)C1)C2,/,1.4
CCCc1nn2c(=O)cc(COc3ccc(/C=C(\C#N)C(=O)NCc4ccco4)cc3)nc2s1,-0.22,-1.3
CCc1cccc(N2C(=O)CCC2(C)C(=O)NC2CCCC2)c1 (stereo unspecified),0.52,0.3
CCc1nnc(NC(=O)CCC(=O)N2CC3(C)CC2CC(C)(C)C3)s1 (stereo unspecified),-0.61,-1.4
CCC(=O)Nc1nnc(-c2ccco2)o1,0.59,0.7
CC(=C1C(=O)c2ccccc2C1=O)N1CCC(C(N)=O)(N2CCCCC2)CC1,-0.44,-1.4
CC(=O)Nc1cc(C(=O)O)ccc1S(=O)(=O)c1ccc(C)cc1,0.033,3.2
CCCc1nc(=S)c2ccccc2[nH]1,0.43,-0.1
O=C(Nc1ccc(N2CCCCC2)cc1)c1cccnc1,1.7,-4.0
O=C(Oc1ccccc1)C1CCCN(C2=NS(=O)(=O)c3ccccc32)C1 (stereo unspecified),/,2.4
COC(=O)CC(=O)c1cc2ccccc2oc1=O,/,0.2
CNC(=O)c1cc(C#N)c(SCC(=O)O)nc1N,/,4.7
CCOC(=O)/C(=C\Nc1ccc(F)c(Cl)c1)S(=O)(=O)c1ccc(Cl)cc1,/,-3.2
Cc1ccc(C(=O)CCC(=O)N2CCCCCC2)cc1,/,-2.1
O=P1(NCc2ccco2)C=C(c2ccccc2)SC(c2ccccc2)=C1,/,0.4
CC(C)(C)c1cc(-c2ccccc2)c(C#N)c(N)n1,-1.2,-0.4
CCOc1ccccc1N1CCN(C(=O)CC(C)(C)C)CC1,0.38,4.8
CCNC(=O)c1cc2c(=O)n3ccccc3nc2n(C(C)C)c1=N,/,-1.0
COc1c(NC(=O)N(C)C)csc1Cl,/,-3.6
Cc1ccc2c(c1)C1OCCC1C(c1cccs1)N2 (stereo unspecified),0.36,0.4
Cc1ccc(NC(=O)c2cccc(Oc3ccc(C#N)cc3)c2)cc1,/,2.7
C=C(C)C1CC=C(CN2CC(C)OC(C)C2)CC1 (stereo unspecified),0.051,1.4
O=C(Nc1ccccc1)c1cnc2n(c1=O)CCS2,-0.4,2.8
C=C1c2ccccc2N=C(SCC(=O)Nc2ccc(OC(F)F)cc2)N1C,/,-0.9
CN(C)C1(CNC(=O)CNC(=O)c2ccccc2Br)CCCCC1,/,-5.2
COC(=O)COc1ccc(S(=O)(=O)Nc2ccc(F)c(Cl)c2)cc1,-0.36,-2.4
CC(C)C(=O)Nc1ccc2oc(-c3cccc4c(Br)cccc34)nc2c1,0.19,1.3
N#Cc1ccc(COC(=O)c2oc3ccccc3c2COc2ccccc2)cc1,/,2.1
Cc1ccc2cc(OC(=O)c3ccc(Oc4cc(Cl)cc(Cl)c4)o3)ccc2n1,/,1.2
c1ccc2[nH]c(C3CCN(CCC4OCCO4)CC3)nc2c1,0.99,-0.3
O=C1/C(=C\c2ccccc2)N=C2SCCCCN12,/,-0.7
Cc1nc2sccn2c(=O)c1S(=O)(=O)N1CCN(c2ccccc2)CC1,-0.92,0.1
CCCN(Cc1nnc(-c2ccco2)o1)C(=O)c1cccnc1SCc1c(C)noc1C,/,1.9
C=CCN(CC)C(=O)C1C(=O)CC(C)(C)CC1=O,0.86,-0.6
C1CCc2nnnn2CC1,-0.27&-0.66,0.8
N#CCOc1ccc(C(=O)NC2CCN(Cc3ccccc3)CC2)cc1,/,-1.7
CC(OC(=O)c1ccc2c(=O)n3c(nc2c1)CCCCC3)C(=O)Nc1ccc(Cl)cn1 (stereo unspecified),/,-1.8
Cn1ncc(C#N)c1/N=C/N1CCCCC1,0.39,-3.0
CN(C)/C=C/C(=N)SCc1c(F)cccc1Cl,0.44,/
COc1ccc(OC)c(-n2c(N)c(C#N)c3nc4ccccc4nc32)c1,/,-2.0
COc1ccc(N2CCN(C(=O)CCNC(C)=O)CC2)cc1,/,0.3
COc1cccc(CSc2nc3ccncc3n2CC(=O)Nc2ccc(N(C)C)cc2)c1,-1.5,-0.4
CC(NC(N)=O)C1CC1 (stereo unspecified),/,1.8
CN(C)CC[C@@H](c1ccc(Cl)cc1)c1ccccn1,-0.3,/
CCOC(=O)/C=C1\SCC(=O)N1CCOC(=O)c1cncc(Br)c1,/,-5.8
COc1ccc(-c2noc(CN)n2)cc1OC,0.48,1.6
COc1ccc(Cl)cc1S(=O)(=O)NC(C)C,-0.96,5.6
CC(=O)N1CCN(C(=S)NC(=O)c2ccc(F)cc2)CC1,/,3.0
O=c1nc(-c2ccc(Cl)cc2)nc(-c2ccc(Cl)cc2)[nH]1,-0.39,2.5
Cc1cc(C(=S)N=P(N(C)C)(N(C)C)N(C)C)c(C)n1-c1ccccc1,/,0.8
CC(=O)N1CC(C(=O)N(CC(=O)Nc2cccc(C)c2C)CC2CCCO2)Oc2ccccc21 (stereo unspecified),/,0.6
Cc1ccccc1COc1ccc2oc(-c3ccccc3)c(C(=O)O)c2c1,/,-2.6
O=C(c1ccccc1)N(Nc1ccccc1)c1ccccc1,/,1.1
Cn1c(O)c(N=Nc2nc3c(c(=O)[nH]c(=O)n3C)n2CCCOc2ccccc2)c(=O)n(C)c1=O,-0.44,-1.4
O=C1CN(C(=O)COC(=O)c2cc(S(=O)(=O)N3CCOCC3)ccc2Cl)c2ccccc2N1,/,0.2
COC(=O)/C=C1\SC(N2N=C(c3ccco3)CC2c2ccc(OC)cc2)=NC1=O (stereo unspecified),/,0.1
O=C(Nc1ccccc1)c1cccc(S(=O)(=O)N2CCCCC2)c1,-0.54,-0.5

# New compounds follow
SMILES,LANA-nucl inh,Ab BasE inh
Cc1nc(COC(=O)c2ccc3c(=O)n4c(nc3c2)CCCCC4)cs1,/,-0.3
C1=C(c2ccccc2)CC(c2ccccc2)=NN=C1c1ccccc1,/,1.8
Cc1ccc(-c2nnn(CC(=O)N3N=C(c4cccs4)CC3c3ccco3)n2)cc1 (stereo unspecified),/,1.3
COc1ccc(C2=NC(C)(C)N(CC(=O)Nc3ccccc3)C2=O)cc1,-0.15,0.9
CCOC(=O)c1cccn1-c1ncc(C(F)(F)F)cc1Cl,0.57,/
c1ccc(-c2noc(NCCN3CCOCC3)n2)cc1,-0.69,1.3
CCOC(=O)c1c(C)[nH]c(C)c1C(=O)Cn1c(C)nc2cc3c(cc21)OCCO3,/,0.5
C=C1C(C(=O)N2CCN(Cc3ccccc3)CC2)C1C(=O)N1CCN(Cc2ccccc2)CC1 (stereo unspecified),/,2.3
O=c1[nH][nH]c(=S)n1Cc1ccccc1,/,1.4&2.1
CC(C)(C)NC(=O)CN1CCN(CC(N)=S)CC1,/,0.7
O=C(c1ccc(CNS(=O)(=O)c2ccc(F)c(Cl)c2)cc1)N1CCOCC1,/,0.4
c1ccc(Sc2ncnc3c2oc2ccccc23)cc1,1.5,0.6
Cn1c(=O)[nH]c(=O)c2c1nc1oc(C(C)(C)C)cn12,1.8,0.6
CSC(=NC(=O)c1c(Cl)cccc1Cl)N1CCCC1,/,3.0
Cc1cccc(C)c1NC(=O)C(C)N (stereo unspecified),0.35&0.37,-1.9
CCn1c(=S)[nH]c2cc(C(=O)O)ccc2c1=O,/,0.3
Cc1nnc(C)n1N1C(=O)c2cccc3cccc(c23)C1=O,-0.76,1.2
COc1ccc(OC)c(COC(=O)Cc2coc3cc(OC)ccc23)c1,/,-4.5
CO/N=C(/C(=O)NC1C(=O)N2C(C(=O)OC(C)OC(C)=O)=C(COC(N)=O)CSC12)c1ccco1 (stereo unspecified),0.87,/
O=C(Nc1cccc(-n2cnnn2)c1)C1CC(=O)N(c2ccc3c(c2)OCCO3)C1 (stereo unspecified),/,1.3
Cc1ccc(O)cc1,0.086&1.1,-2.5
CCCCn1ncc(O)c(Cl)c1=O,-0.82,9.7
O=C(CCn1c(=O)oc2ccccc21)N1CCCc2ccccc21,0.066,0.7
COc1ccc(/C=C2\SC(=NC3CCCC3)NC2=O)cc1,/,1.8
C=CCOc1ccccc1OCC(O)CNC(C)C (stereo unspecified),-0.062,0.5
N#CCCN1N=C(c2ccccc2)/C(=C\c2cn(CCC#N)nc2-c2ccccc2)C1=O,/,2.3
Cc1ccc(NC(=O)CN(C)S(=O)(=O)c2ccc3c(c2)CCCC(=O)N3)cc1F,/,-2.7
O=C(OC1CCCCC1=O)c1ccc(F)cc1Cl (stereo unspecified),/,-0.3
Cc1cccc(N2CCN(CCCNc3ncnc4onc(C)c34)CC2C)c1 (stereo unspecified),/,-1.4
Cc1ccc(/C(O)=C2/C(=O)C(=O)N(CC3CCCO3)C23C(=O)N(C)c2ccccc23)cc1 (stereo unspecified),0.36,0.1
O=C(Nc1ccccc1C(=O)OCc1nc2sc3c(c2c(=O)[nH]1)CCCC3)c1ccco1,/,-1.9
CC1CC(C)CN(C(=O)CS(=O)(=O)c2ccccc2)C1 (stereo unspecified),0.56,-0.7
CCOC(=O)c1cc2occc2n1CC(=O)N1CCCCC1C (stereo unspecified),0.47,-2.3
COCCOc1ccc(C(F)(F)F)cc1NC(=O)CSc1nnc(-c2ccc(F)cc2)o1,/,0.9
O=C1c2ccccc2C(=O)N1CCCOc1ccccc1,-0.7,2.9
CCC(=O)N=c1sc2ccccc2n1C,-0.88,0.4
c1ccc(C2CCCN(c3ncnc4nc[nH]c34)C2)cc1 (stereo unspecified),-0.25,3.9
Clc1ccccc1/C=C/C=Nc1ccc(N2CCOCC2)cc1,/,1.7
CCOC(=O)c1ccc(NC(=O)c2ccc(C)cc2)cc1,/,4.3
N#C/C(=C(/O)Cn1nc(C(=O)O)c2ccccc2c1=O)c1nc2ccccc2[nH]1,/,-0.4
CN(C)S(=O)(=O)c1ccc2c(c1)c(=O)c(C(=O)N1CCN(c3ccccc3)CC1)cn2C,1.3,0.9
CC1(C)CC(=O)c2c(SCC(=O)NN)sc(C#N)c2C1,/,1.4
Cc1cc(C)c(C(=O)N2CCCCC2C)c(C)c1 (stereo unspecified),-0.66,-0.9
Cc1c(C(=O)O)cc(-c2ccccc2)n1CCSCc1c(F)cccc1Cl,/,2.3
Oc1ccc(/C=N/n2cnn(Cc3ccccc3Cl)c2=S)c(O)c1,/,1.2
CCCCCC(=O)Nc1ccc(Cc2ccncc2)cc1,-0.21,3.5
c1csc(CNc2ccc(-c3nc4ncccc4o3)cc2)c1,-1.5,0.4
O=C1CCC(=O)N1CN1CCOCC1,-0.033,1.3
CC(NC(=O)CCCc1cccs1)c1ccc(S(N)(=O)=O)cc1 (stereo unspecified),/,-1.0
CC(C=C1C(=O)NC(=O)NC1=O)c1ccccc1 (stereo unspecified),/,-0.1
CCOc1ccc2c(O)csc2c1,0.95,-2.8
CC(=O)N1CCN(C(=O)Cc2csc3nc(-c4ccc(Cl)cc4)cn23)CC1,-0.58,-0.6
CCc1ccccc1NC(=O)C1CC2C=CC1C2 (stereo unspecified),/,0.7
O=c1oc2c(ccc3ccccc32)c2c1SC(C(F)(F)F)C2 (stereo unspecified),1,-0.3
Cc1[nH]nc(-c2ccc(O)c(C)c2O)c1Oc1ccccc1,0.44,2.8
CN(CCO)S(=O)(=O)c1ccc2c(c1)C(=NO)c1cc(S(=O)(=O)N(C)CCO)ccc1-2,/,0.7
COc1ccc(-c2nnc(SCC(=O)N[C@H](c3nc4ccccc4[nH]3)C(C)C)o2)cc1,/,1.8
O=C(/C=C/c1ccco1)NC(=S)Nc1ccccc1C(F)(F)F,1,-1.9
CC(C)NC(=O)c1ccccc1NC(=O)CCS(=O)(=O)Cc1ccccc1,-0.76,3.5
CCOC(Cn1c(SCC(=O)NCCc2ccc(S(N)(=O)=O)cc2)nc2ccccc2c1=O)OCC,0.6,0.3
O=C(CSCc1ccccc1)N1CCN(c2ncccn2)CC1,/,2.4
COc1cccc(/C(O)=C/c2nc3ccc(C(=O)N4CCN(c5ccccn5)CC4)cc3[nH]c2=O)c1,-2.9,25
Cc1ccc(SCC(=O)NCCN2C(=O)CSC2=O)c(C)c1,/,3.6
